VDR inh: inhibitors of human vitamin D receptor; Potency, µM, inactives show max response, negative = inhibition, hits mostly inhibitors; P11473; VDR-SRC2-3 peptide fluorescence polarization, 2 h; 0.93% of 400,000 active; active = well fitted inhibition curve with a large enough effect; inconclusive = small, poorly fitted or top-dose-only effect, or another doubt; inactive = no such curve, though single readings can be large or run the other way; note: series mostly up to about 120 µM
Target sequence (P11473 whole entry, looked up): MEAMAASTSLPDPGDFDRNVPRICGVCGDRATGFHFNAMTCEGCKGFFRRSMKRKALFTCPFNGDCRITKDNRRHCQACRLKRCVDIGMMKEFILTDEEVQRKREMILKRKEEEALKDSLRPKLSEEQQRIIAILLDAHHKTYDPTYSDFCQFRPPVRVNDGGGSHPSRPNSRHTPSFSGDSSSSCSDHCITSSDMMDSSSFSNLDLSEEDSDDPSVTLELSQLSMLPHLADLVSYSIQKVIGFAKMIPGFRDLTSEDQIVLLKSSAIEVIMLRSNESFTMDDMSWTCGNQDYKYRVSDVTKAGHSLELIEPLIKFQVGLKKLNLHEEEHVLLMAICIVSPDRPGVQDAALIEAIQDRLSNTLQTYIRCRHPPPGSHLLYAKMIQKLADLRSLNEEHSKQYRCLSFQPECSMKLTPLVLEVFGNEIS
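Reagent solutions, kept cold and dark, are dispensed first; compounds are then pinned in at 23 nl, plates briefly spun, and incubated 2 h at ambient temperature. Inhibition of VDR–SRC2-3 peptide binding is read by fluorescence polarization.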
* = called active by the depositor; & = joins results of further samples. % is set by controls: 0 for no effect and ±100 for the full control effect; potency is the fitted concentration of half-maximal effect. An excerpt; the hit share may differ from the screen's.

Results for CN1CCN(c2nc(Nc3cccc(C(F)(F)F)c3)nc(N3CCOCC3)n2)CC1 ?
VDR inh: -19.0%

What do the screens show for `CCCCOc1ccc(NC(=O)CSc2cccc3cccnc23)cc1`?
VDR inh: 9.2%

What do the screens show for `Oc1ccc(NCc2ccc(OCc3ccccc3)cc2)cc1`?
VDR inh: 89.1µM*

What do the screens show for `CCOC(=O)CSc1nnc(CNC(=O)c2cccs2)n1Cc1ccccc1`?
VDR inh: 4.5%

What do the screens show for `Cc1cccc(CS(=O)(=O)c2ncc(Cl)c(C(=O)Nc3nc4ccc(F)cc4s3)n2)c1`?
VDR inh: -22.8%

How did Cc1ccccc1CNCc1c(C(=O)O)c(C)n(Cc2ccc(F)cc2Cl)c1C do in these assays?
VDR inh: 9.0%

How did Cc1ccccc1NC(=O)COC(=O)CCSc1ccccc1 do in these assays?
VDR inh: -19.7%

How did COC(CN1CCc2c(C)nc3c(C#N)cnn3c21)OC do in these assays?
VDR inh: -0.8%

Results for CC(=O)c1ccc(NC(=O)c2ccc3c(=O)n4c(nc3c2)CCCCC4)cc1 ?
VDR inh: 15.4%

How did COc1cc2c(C#N)c(N3CCN(c4ccccc4OC)CC3)nc(N)c2c(N)n1 do in these assays?
VDR inh: -28.5%

Results for O=C1CC(N2CCc3ccccc32)C(=O)N1c1ccccc1 (centres undefined) ?
VDR inh: -2.8%

How did CCCN(C(=O)c1cc2c(s1)-c1ccccc1SC2)c1ccccc1F do in these assays?
VDR inh: 2.5%

What do the screens show for `COc1cc(/C=C2\SC(=O)N(CCNC(=O)c3sc4cc(F)ccc4c3Cl)C2=O)cc(OC)c1OC`?
VDR inh: -15.1%

Results for Cc1ccc(NC(=O)N(Cc2cn(C)c3ccccc23)C2CCCCC2)cc1C ?
VDR inh: -8.7%

What do the screens show for `COc1ccc(NC(=O)CN(C)C(=O)CCC2CCCC2)cc1`?
VDR inh: -6.7%

Results for C/C(=N\Nc1cccc2cccnc12)c1ccc(N)cc1 ?
VDR inh: -28.4%

What do the screens show for `COc1ccc(OC)c(NC(=O)CNC(c2ccccc2)c2ccccc2)c1`?
VDR inh: 16.8%

Results for COc1ccc2c(c1)c1nc3ccccc3nc1n2Cc1ccc(OC(C)C)c(OC)c1 ?
VDR inh: -18.6%

What do the screens show for `CCOc1ccccc1/C=N/NC(=O)CSc1n[nH]c(=O)[nH]c1=O`?
VDR inh: -6.2%

How did CCC1CCC2(CC1)NC(=O)N(CC(=O)c1c(C)[nH]c3ccccc13)C2=O (centres undefined) do in these assays?
VDR inh: 5.2%

3 records picked at random from those above:
What do the screens show for `CCOc1ccccc1/C=N/NC(=O)CSc1n[nH]c(=O)[nH]c1=O`?
VDR inh: -6.2%

How did CCCN(C(=O)c1cc2c(s1)-c1ccccc1SC2)c1ccccc1F do in these assays?
VDR inh: 2.5%

What do the screens show for `COc1cc(/C=C2\SC(=O)N(CCNC(=O)c3sc4cc(F)ccc4c3Cl)C2=O)cc(OC)c1OC`?
VDR inh: -15.1%

(further entries)
Results for Cc1cc(C(=O)Nc2ccc(Cl)cc2)c(C)n1Cc1cccs1 ?
VDR inh: 26.6%

How did Cc1nn(Cc2ccccc2Cl)c(C)c1NC(=O)NC12CC3CC(CC(C3)C1)C2 do in these assays?
VDR inh: 0.2%

Results for CCOC(=O)c1sc(NC(=O)c2ccc(S(=O)(=O)N(C)C)cc2)nc1C ?
VDR inh: 1.3%

What do the screens show for `CC1=NN(C(N)=S)C(=O)C1N=Nc1ccc(Cl)cc1Cl` (centres undefined)?
VDR inh: inconclusive

How did NC(=O)CCS(=O)(=O)c1ccc(Cl)cc1 do in these assays?
VDR inh: -16.9%

What do the screens show for `CC(C)(C)NC(=O)CSc1nnc(-c2c[nH]c3ccccc23)o1`?
VDR inh: -1.8%

What do the screens show for `Cc1cccc(C)c1NC(=O)c1cc(S(=O)(=O)N2CCc3ccccc32)cn1C`?
VDR inh: -2.3%

Results for COc1ccc(C(=O)Nc2cccc(OC)c2)cc1 ?
VDR inh: 7.1%

What do the screens show for `CCc1nn2c(=O)cc(COC(=O)c3ccccc3NC(=O)c3ccc(C(C)(C)C)cc3)nc2s1`?
VDR inh: 14.3%

How did CCOc1ccc(-n2c(N)c(C(=O)NCc3cccnc3)sc2=S)cc1 do in these assays?
VDR inh: -24.6%

What do the screens show for `N/C(Cc1ccc([N+](=O)[O-])cc1)=N\OC(=O)C(c1ccccc1)c1ccccc1`?
VDR inh: -4.4%

How did CC1(C)CCC(C)(C)NC(=S)N1 do in these assays?
VDR inh: 10.9%

Results for CNC(=O)c1cc2ccc(OC)cc2oc1=O ?
VDR inh: 3.4%

What do the screens show for `Cc1csc2nc(CNC(=O)C3CC=CCC3C(=O)O)cn12` (centres undefined)?
VDR inh: -12.8%

What do the screens show for `C/C(=N/NC(=O)c1ccc(C)s1)c1cccc(NC(=O)COc2ccc(Cl)cc2C)c1`?
VDR inh: 5.1%

Results for COc1ccc(-c2nnc(N)s2)cc1OC ?
VDR inh: 15.3%

What do the screens show for `Cc1ccc(S(=O)(=O)N2CC(=NO)C2)cc1`?
VDR inh: -1.6%

How did Cc1ccc2c(c1)[C@H]1[C@H](CO2)[C@H](c2ccccc2)[C@]2(C)C(=O)N(Cc3ccco3)CC(=O)N12 do in these assays?
VDR inh: inconclusive

Results for O=C1/C(=C/c2ccco2)SC(=S)N1c1cccnc1 ?
VDR inh: -18.1%

Results for Cc1cccc(C)c1NC1=NCCCCC1 ?
VDR inh: 1.0%

What do the screens show for `O=C(CN1CCCC1)NN=C(c1ccccc1)c1ccccc1`?
VDR inh: -23.3%

What do the screens show for `Cn1c(CSCc2ccc(F)cc2)nnc1SCC(=O)Nc1nccs1`?
VDR inh: -17.5%

How did NCCCNC(=S)NCCCN(Cc1ccc(Cl)cc1)c1ccc(Br)cn1 do in these assays?
VDR inh: -24.7%

What do the screens show for `Cc1ccc(NC(=O)COc2ncnc3c(Cl)cc(Cl)cc23)cc1[N+](=O)[O-]`?
VDR inh: -5.3%

How did CC1=C/C(=N\NC(=S)Nc2cccnc2)CC(C)(C)C1 do in these assays?
VDR inh: -9.1%

What do the screens show for `O=C(c1cccs1)N(Cc1cccnc1)c1nc2c(F)cc(F)cc2s1`?
VDR inh: -5.4%

How did COC(=O)/C=c1\sc2ncnn2c1=O do in these assays?
VDR inh: -14.4%

What do the screens show for `Cn1nc(C(=O)Nc2nc(-c3ccc(F)cc3)cs2)ccc1=O`?
VDR inh: -4.6%

Results for COc1ccccc1NS(=O)(=O)c1ccc(O)c(C(=O)OCC(=O)c2ccc(Cl)cc2Cl)c1 ?
VDR inh: -9.8%

Results for COc1cccc(NC(=O)Nc2nnc(Cc3ccc(F)cc3)s2)c1 ?
VDR inh: -18.5%

What do the screens show for `C/C(=N\Nc1ccccn1)c1ccc2c(c1)OCO2`?
VDR inh: -5.1%

What do the screens show for `CC1CCCN(CC(=O)Nc2cc(Cl)ccc2Oc2ccccc2)C1` (centres undefined)?
VDR inh: -6.3%

How did COc1ccc(S(=O)(=O)N2CCC(n3cnc4ccccc43)CC2)cc1 do in these assays?
VDR inh: -2.0%

How did O=C(O)c1ccc(/C=C2\SC(=Nc3ccccc3)N(c3ccccc3)C2=O)cc1 do in these assays?
VDR inh: -27.9%

Results for CCN(C(=O)c1ccc(C(C)(C)C)cc1)c1nnc(Cn2nnc3ccccc32)s1 ?
VDR inh: -5.7%

How did CCOC(=O)c1ccc(NC(=O)Cn2cnc(S(=O)(=O)N3CCCC3)c2)cc1 do in these assays?
VDR inh: 5.0%&13.2%

How did O=C1COc2ccc(C(=O)COC(=O)CNC(=O)c3ccco3)cc2N1 do in these assays?
VDR inh: 6.9%

What do the screens show for `O=C(O)CCCCc1nc2ccccc2s1`?
VDR inh: 3.5%

What do the screens show for `CC(=O)Nc1ccc(NC(=O)c2ccc(-c3ccccc3Cl)o2)cc1`?
VDR inh: 9.5%

What do the screens show for `O=C(Nc1ccc(NC(=O)c2ccccc2Cl)cc1)c1cccnc1`?
VDR inh: 6.8%

What do the screens show for `O=C(Nc1ccc2oc(-c3ccc(Cl)c(Cl)c3)nc2c1)c1ncn[nH]1`?
VDR inh: 4.0%

Results for O=c1cnc2cnc(Oc3ccccc3)nc2n1CCc1ccccc1 ?
VDR inh: -5.4%

How did COc1ccc(N2C(S)=C(C#N)C(=O)NC2c2ccco2)cc1 (centres undefined) do in these assays?
VDR inh: 39.8µM*

How did O=C(NCC1CCCO1)c1ccc(Cl)c(S(=O)(=O)Nc2ccccc2)c1 (centres undefined) do in these assays?
VDR inh: -11.7%

How did CC1CCC(NS(=O)(=O)c2cccc3nsnc23)CC1 (centres undefined) do in these assays?
VDR inh: 9.7%

What do the screens show for `c1cc(CNCCCN2CCOCC2)ccn1`?
VDR inh: -7.3%

How did O=C1CCC(C(=O)N2CCCCCC2)CN1CCc1ccc(Cl)cc1 (centres undefined) do in these assays?
VDR inh: -2.8%

Results for C=CCN(C(=O)CNC(=O)c1cccs1)C(C(=O)NC(C)(C)C)c1ccccc1 (centres undefined) ?
VDR inh: 11.7%

Results for O=C(CS(=O)(=O)c1ccccc1)N1CCCCC1 ?
VDR inh: 11.8%

How did CCC1(CC)Cc2ccccc2-c2nc(CN(C)C)[nH]c(=O)c21 do in these assays?
VDR inh: -18.3%

Results for C[C@@H]1ON(C2CCCCC2)[C@H]2c3nc4ccccc4n3C[C@@H]12 ?
VDR inh: -25.3%

Results for Cc1ccc(C(=O)C(C)Oc2cccc(NC(=O)c3ccco3)c2)cc1 (centres undefined) ?
VDR inh: 9.6%

How did COc1cc(/C=N/NC(=O)c2ccc(COc3cc(C)ccc3C(C)C)cc2)cc(OC)c1O do in these assays?
VDR inh: 1.2%

What do the screens show for `COc1ccc(C(=O)Cc2cnn(-c3ccccc3)c2)c(O)c1`?
VDR inh: 1.2%

Results for O=C(NCCc1ccccc1)c1ccc(=O)oc1 ?
VDR inh: 3.2%

How did O=C1CCCC2=C1C(c1ccc3c(c1)OCO3)c1c([nH]n(-c3ccccc3)c1=O)N2 (centres undefined) do in these assays?
VDR inh: 1.6%

How did Cc1ccc2nc(NCc3ccccc3)c3nncn3c2c1 do in these assays?
VDR inh: 8.7%

How did COc1ccccc1N1CCN(C(=O)C2CCN(S(=O)(=O)c3cnc[nH]3)CC2)CC1 do in these assays?
VDR inh: -9.9%

Results for Cc1cc(C)c(C)c(OCCCCN2CCCCC2)c1 ?
VDR inh: 0.5%

How did Cc1ccc(OCc2nnc(SCC(=O)O)n2-c2ccccc2)cc1 do in these assays?
VDR inh: -20.4%

Overlap with the part before: 3 compounds; new compounds follow.
How did COc1ccccc1N1CCN(C(=O)C2CCN(S(=O)(=O)c3cnc[nH]3)CC2)CC1 do in these assays?
VDR inh: -9.9%

Results for Cc1cc(C)c(C)c(OCCCCN2CCCCC2)c1 ?
VDR inh: 0.5%

How did Cc1ccc(OCc2nnc(SCC(=O)O)n2-c2ccccc2)cc1 do in these assays?
VDR inh: -20.4%

Results for Cc1ccc(NC(=O)CN2CCN(Cc3ccccc3)CC2)cc1F ?
VDR inh: -8.6%

Results for Cc1nc(-c2cccc(Br)c2)ccc1C(=O)O ?
VDR inh: 10.0%

What do the screens show for `O=C(NC1CCCCC1)c1ccc(Cn2cc(Cl)cn2)cc1`?
VDR inh: 19.3%

What do the screens show for `CCOC(=O)c1ccccc1N1C(=O)CSC1=S`?
VDR inh: 22.2%

What do the screens show for `Cc1cc(NC(=O)CSCC(=O)N(c2ccc(F)cc2)C(C(=O)NC2CCCCC2)c2ccc(O)c(O)c2)no1` (centres undefined)?
VDR inh: 6.9%

What do the screens show for `COc1cccc2sc(=NC(=O)CS(=O)(=O)c3ccc(Cl)cc3)n(C)c12`?
VDR inh: -5.5%

Results for COc1ccc(CCC(=O)NCCS(=O)(=O)N2CCN(c3ccc(F)cc3)CC2)cc1 ?
VDR inh: 3.5%

How did O=C(COC(=O)c1ccc([N+](=O)[O-])cc1Cl)NCc1ccco1 do in these assays?
VDR inh: -12.7%

How did COC(=O)c1ccc(N2CCS(=O)(=O)CC2)cc1 do in these assays?
VDR inh: -9.0%

How did O=C(CSc1nnnn1-c1cccnc1)Nc1cccc(Cl)c1 do in these assays?
VDR inh: -12.6%

What do the screens show for `CC(C)c1nnc(SCC(=O)N2CCOCC2)n1C`?
VDR inh: 16.6%

How did COc1ccc(N2CCN(C(=O)c3cccc(S(=O)(=O)N4CCOCC4)c3)CC2)cc1 do in these assays?
VDR inh: 11.7%

What do the screens show for `COc1ccccc1NC(=O)CCN1CCCCCC1`?
VDR inh: 14.3%

What do the screens show for `COc1cccc(CNS(=O)(=O)c2ccc3c(c2)N(C)CCO3)c1`?
VDR inh: -2.0%

What do the screens show for `CCN(CC)CCn1c(NC(=O)c2ccccc2O)nc2ccccc21`?
VDR inh: 3.5%

Results for C/C(=N\NC(=O)C(C)Oc1ccc([N+](=O)[O-])cc1)c1ccccn1 (centres undefined) ?
VDR inh: 0.9%

How did CCCN(Cc1cccs1)C(=O)Nc1cc(C)cc(C)c1 do in these assays?
VDR inh: 14.6%

What do the screens show for `CCOc1cc(/C=N/Nc2nncc(-c3ccccc3)n2)ccc1O`?
VDR inh: -10.5%

How did CCN(CC)CCNC(=O)C(=O)NCC1OCCN1S(=O)(=O)c1ccc2c(c1)OCCO2 (centres undefined) do in these assays?
VDR inh: 14.7%

How did O=[N+]([O-])c1ccccc1OCCCN1CCOCC1 do in these assays?
VDR inh: 6.3%

How did Cc1ccc(CS(=O)Cc2ccc(C(=O)NCc3ccccc3Cl)o2)cc1 (centres undefined) do in these assays?
VDR inh: 10.6%&9.1%

How did Cc1ccc(S(=O)(=O)N2CCCC2C(=O)OCC(=O)Nc2ccc3c(c2)OCO3)cc1 (centres undefined) do in these assays?
VDR inh: 2.1%

How did CCc1cc(=O)oc2cc(C)c3c(C)coc3c12 do in these assays?
VDR inh: 12.2%

At a glance, part of the list above:
Results for CN1CCN(c2nc(Nc3cccc(C(F)(F)F)c3)nc(N3CCOCC3)n2)CC1 ?
VDR inh: -19.0%

What do the screens show for `CCCCOc1ccc(NC(=O)CSc2cccc3cccnc23)cc1`?
VDR inh: 9.2%

What do the screens show for `Oc1ccc(NCc2ccc(OCc3ccccc3)cc2)cc1`?
VDR inh: 89.1µM*
